STAT1 inh – inhibitors of IFN-gamma induced STAT1 signaling; NIH 3T3 STAT1-luciferase reporter, luminescence; inhibition, % at 5.5 µM; hit rate 0.35% among 200,000; AID 920;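 active means inhibition above a set limit, the mean inhibition across all tested compounds plus 3 SD, cut at about 34% in these data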;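 further: 0% = IFN-gamma with DMSO and 100% = IFN-gamma with 300 µM nifuroxazide; values of inactives mirror those of a sister screen read the other way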
Diaphorase inh – counter-screen for diaphorase-based assays: diaphorase inhibitors and chemical oxidizers; hit rate 0.69% among 190,000; inhibition, % at 20 µM; diaphorase resazurin-to-resorufin fluorescence, NADH, 16 min; bacterial (C. kluyveri) enzyme, not human;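 active means primary screen inhibition at 20 µM above a set limit, cut at about 50% in these data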;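 further: plate controls were DMSO with full reaction for no effect and wells lacking NADH for full effect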
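Benchmarks: positive control wells lacking NADH, neutral wells with DMSO only. System: bacterial diaphorase enzyme (C. kluyveri). Input: 0.14 U/mL diaphorase, enzyme working solution. Detection: resorufin fluorescence, excitation 544 nm, emission 590 nm. Times: 16-min room-temperature incubation before reading.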
Hsp70 act – switches on Hsp70 transcription; HeLa Hsp70 promoter luciferase reporter, luminescence; scaled: vehicle 0, proteasome-inhibitor control 100%; activation, % at 10 µM; hit rate 0.04% among 200,000;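 active means activation above the mean across all tested compounds plus 3 SD, cutoff set per campaign, cut at about 5.5% in these data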;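 further: 100% = MG132 at 30 µM as the positive control and 0% = DMSO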
Diaph act CS – activates diaphorase or chemically reduces, flagging diaphorase assay artifacts. Diaphorase/resazurin coupled assay, resorufin fluorescence, 16 min; active compounds read high; 1 = vehicle wells, 0 = NADH-free wells. activation factor at 20 µM. hit rate 0.005% among 190,000;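 active means diaphorase activity raised at least twofold by the compound at 20 µM; inactive means activation factor below 2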
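Test system: Clostridium kluyveri diaphorase, purified enzyme. Buffer or medium: 50 mM HEPES pH 7.4 buffer plus MgCl2 and Tween 20. Also added: 0.114 mM NADH and 0.1 mM resazurin, final amounts. Dosing: compound 20 µM once, DMSO 1%. Schedule: 16 min enzyme reaction, ambient temperature. Detection: fluorescence of resorufin, 544 nm excitation, 590 nm emission.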
G6PDH CS – counter-screen for G6PDH assay hits: L. mesenteroides G6PDH inhibition. hit rate 0.12% among 200,000. inhibition, % at 5 µM. Purified L. mesenteroides G6PDH, diaphorase/resazurin coupled fluorescence, 45 min. AID 1020; in the data active means inhibition above about 50%
An asterisk follows results filed as active; x = not tested or not shown; & = joins results of further samples.

Each structure is followed by: STAT1 inh	Diaphorase inh	Hsp70 act	Diaph act CS	G6PDH CS
CCOC(=O)c1ncn2c1CN(C)C(=O)c1cc(F)ccc1-2
 : 0	5&19	0.7&-0.4	0.9&0.8	4&9
Cc1nc(-c2ccc(NC(=O)c3cccs3)cc2)cs1
 : 20	9	-0.3	0.9	-39
Brc1ccc(-c2cn3ccccc3n2)s1
 : -14	3	-0.2	1	3
Fc1ccccc1-c1nc(-c2ccc(Cl)cc2)no1
 : -41	x	0.1	x	x
CC(COc1ccccc1)N(CCCl)Cc1ccccc1 (configuration not stated)
 : -2	6	-0.4	0.9	3
Cc1nn(-c2nc3ccccc3[nH]2)c(N)c1-c1ccccc1
 : -92	18	0.2	0.8	7
COc1ccc(CC(=O)Nc2cccc(SC)c2)cc1OC
 : 18	15	-0.3	0.8	3
CCN1/C(=C/C=C/C=C/c2sc3ccccc3[n+]2CC)Sc2ccccc21
 : 27	-7	-0.4	1.1	8
CC(C)c1ccc(NC(=O)c2ccc(Br)o2)cc1
 : -30	8	-0.3	0.9	2
CCN1/C(=C/c2cc[n+](C)cc2)C=Cc2cc(C)ccc21
 : 33	18	-0.7	0.8	45
CC[N+](C)(C)c1cccc(O)c1
 : 0	-16	-0.3	1.2	8
CN(C)c1ccc(/C=C/c2ccc3ccccc3[n+]2C)cc1
 : 25	-6	-0.3	1.1	-21
CC1(C)CC(N2CCCC2)=CC(=[N+]2CCCCC2)C1
 : 30	-9	-0.2	1.1	4
CCOC(=O)c1ccc2c(c1)n(CC)c(/C=C/N(C)c1ccccc1)[n+]2CC
 : 23	8	-0.5	0.9	-20
CC1CC(C)C[N+](=C2C=C(N3CCCC3)CC(C)(C)C2)C1 (configuration not stated)
 : 29	8	-0.4	0.9	2
Nc1ccn([C@@H]2O[C@H](CO)[C@@H](O)C2O)c(=O)n1 (some centres not stated)
 : x	11	-0.3	0.9	15
CC1(C)CC(N2CCCC2)=CC(=[N+]2CCCCCC2)C1
 : 31	0	0.0	1	13
Clc1ccc(-n2nnnc2Sc2ncnc3sccc23)cc1
 : 20	x	0.0	x	x
CC[n+]1ccc(/C=C/c2ccc(N(C)C)cc2)c2ccccc21
 : 20	22	0.0	0.8	15
c1ccc2nc(-c3ccc4c(c3)OCO4)ccc2c1
 : -22	4	0.2	1	-3
COc1ccc(NC(=O)Nc2ccccc2F)cc1
 : -17	9	-0.1	0.9	2

Four compounds from above, arranged by molar mass, high to low:
Each structure is followed by: STAT1 inh	Diaphorase inh	Hsp70 act	Diaph act CS	G6PDH CS
COc1ccc(CC(=O)Nc2cccc(SC)c2)cc1OC
 : 18	15	-0.3	0.8	3
CCN1/C(=C/c2cc[n+](C)cc2)C=Cc2cc(C)ccc21
 : 33	18	-0.7	0.8	45
CC1(C)CC(N2CCCC2)=CC(=[N+]2CCCCC2)C1
 : 30	-9	-0.2	1.1	4
COc1ccc(NC(=O)Nc2ccccc2F)cc1
 : -17	9	-0.1	0.9	2

Shown comma-delimited: 7 of the compounds above
Structure,STAT1 inh,Diaphorase inh,Hsp70 act,Diaph act CS,G6PDH CS
CCOC(=O)c1ncn2c1CN(C)C(=O)c1cc(F)ccc1-2,0,5&19,0.7&-0.4,0.9&0.8,4&9
Cc1nc(-c2ccc(NC(=O)c3cccs3)cc2)cs1,20,9,-0.3,0.9,-39
Brc1ccc(-c2cn3ccccc3n2)s1,-14,3,-0.2,1,3
Fc1ccccc1-c1nc(-c2ccc(Cl)cc2)no1,-41,x,0.1,x,x
CC(COc1ccccc1)N(CCCl)Cc1ccccc1 (configuration not stated),-2,6,-0.4,0.9,3
Cc1nn(-c2nc3ccccc3[nH]2)c(N)c1-c1ccccc1,-92,18,0.2,0.8,7
COc1ccc(CC(=O)Nc2cccc(SC)c2)cc1OC,18,15,-0.3,0.8,3

Bioassay records (PubChem BioAssay)

A portion of the library, so the mix of outcomes need not match the whole.
